# VCAM-1 rise – enhancers of VCAM-1 display on endothelial cells, cell-based, plate reader, pooled HUVEC, TNFa stimulus (AID 455); augmentation, % at 5 µM; 10,000 tested, 0.2% active; HUVEC TNFa-induced VCAM-1 immunofluorescence, plate reader; numbers were filed only for top-ranked candidate wells;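 active = a compound raising TNF-alpha-driven VCAM-1 surface staining, with its hit status upheld on visual or statistical review; inactive = the rest, including hits rejected on review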;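 note: 0% = TNFa with vehicle and 100% = strongest image-checked hit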
# Proteasome disasm – inhibitors of ATP-driven 26S proteasome dissociation, primary screen, biochemical, bead-based flow cytometry, GFP-tagged proteasome; inhibition of disassembly, % (concentration not given with the values); AID 751, 2007; anti-FLAG beads, GFP-proteasome disassembly; 24,000 tested, 0.2% active;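 active = above 40%; inconclusive = likely self-fluorescent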;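 note: plate controls were ATP control with full disassembly for no effect and ATP-gamma-S intact proteasomes for full effect; higher percent means more bead fluorescence retained so stronger block of disassembly; stock transfer was 100 nL into about 10 µL; wells with too few beads may also be inconclusive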
# * hit, by the source's call; i = inactive; ? = inconclusive; . = not tested or not shown.
# Preview (7 entries):
SMILES,VCAM-1 rise,Proteasome disasm
CCOc1ccc(N2CC(C(=O)Nc3cccc(C)c3C)CC2=O)cc1 (stereo unspecified),i,-0.5
CC(=O)N1c2ccc(S(=O)(=O)CCC(=O)O)cc2CC1C (stereo unspecified),.,-0.9
COc1ccc(C(=O)c2ccc(OC)c(OC)c2)cc1OC,.,-0.4
CCOc1c(OC)cc(C2C(C#N)=C(N)Oc3n[nH]c(-c4ccncc4)c32)cc1OC (stereo unspecified),.,-0.1
CNC(=O)C1C2C=CC3(O2)C1C(=O)N(C1CC1)C3C(=O)NCc1ccc(OC)cc1 (stereo unspecified),i,-1.7
COc1ccc(CCNC(=O)C2CCCN(S(C)(=O)=O)C2)cc1OC (stereo unspecified),.,-0.9
CC(=O)c1ccc(NC(=O)CSc2nnc(NC(=O)CN3CCOCC3)s2)cc1,.,0.1

# The list itself, repeating the preview:
SMILES,VCAM-1 rise,Proteasome disasm
CCOc1ccc(N2CC(C(=O)Nc3cccc(C)c3C)CC2=O)cc1 (stereo unspecified),i,-0.5
CC(=O)N1c2ccc(S(=O)(=O)CCC(=O)O)cc2CC1C (stereo unspecified),.,-0.9
COc1ccc(C(=O)c2ccc(OC)c(OC)c2)cc1OC,.,-0.4
CCOc1c(OC)cc(C2C(C#N)=C(N)Oc3n[nH]c(-c4ccncc4)c32)cc1OC (stereo unspecified),.,-0.1
CNC(=O)C1C2C=CC3(O2)C1C(=O)N(C1CC1)C3C(=O)NCc1ccc(OC)cc1 (stereo unspecified),i,-1.7
COc1ccc(CCNC(=O)C2CCCN(S(C)(=O)=O)C2)cc1OC (stereo unspecified),.,-0.9
CC(=O)c1ccc(NC(=O)CSc2nnc(NC(=O)CN3CCOCC3)s2)cc1,.,0.1
CN(C)C(=O)N1CCC(C(=O)NCc2ccccc2)CC1,.,-2.1
CCCc1[nH]nc2c1C(c1cn[nH]c1-c1ccc(F)cc1)C(C#N)=C(N)O2 (stereo unspecified),i,1.0
Cc1cc(=O)[nH]c(SCC(=O)c2ccc(C(C)C)cc2)n1,.,-0.1
CC(=O)N1CCc2cc(S(=O)(=O)CCC(=O)NCc3ccc4c(c3)OCO4)ccc21,.,1.0
CSC1=NCCN1C(=O)c1ccc(S(=O)(=O)N2CCCC2)cc1,i,1.4
COc1cc(NC(=O)c2cc3c(=O)n(C)c4ccccc4c3n2C)cc(OC)c1OC,.,-0.8
CN(CC(=O)N1CC(=O)N(CCc2ccccc2)C(=O)C1)S(=O)(=O)c1cccc2nsnc12,.,1.8
CCC(C)(C(=O)NC1CCCC1)N(C(=O)CNC(C)=O)c1ccc(C)cc1 (stereo unspecified),.,-1.1
Cc1onc(-c2ccccc2)c1C(=O)Nc1cccc(C#N)c1,.,-0.3
CC1CCCCN1C(=O)Cn1nnc(-c2cccnc2)n1 (stereo unspecified),i,?
Cc1nc2c(C(=O)N3CCCCC3)cnn2c(C)c1Cc1ccccc1F,.,-0.1
O=C1OCCN1CCN(CN1C(=O)CCC1=O)CN1C(=O)CCC1=O,.,-0.9
COc1ccc(-c2nc(C#N)c(N3CCOCC3)o2)cc1OC,i,-2.9
Cc1ccc(N2CCN(c3ccc(C)cc3)C(CC(=O)O)C2=O)cc1 (stereo unspecified),i,-2.7
Fc1cc(F)c2nc(N3CCOCC3)sc2c1,.,-0.9
CCN1C=C(Cc2cccs2)C2=C(C1)C(c1cccs1)C(C#N)=C(N)O2 (stereo unspecified),.,1.9
Cc1ccccc1-n1c(=O)cc(N2CCN(C(=O)c3ccco3)CC2)[nH]c1=O,i,-0.1
O=C(CS(=O)(=O)c1cn(Cc2ccccc2Cl)c2ccccc12)N1CCOCC1,.,-2.7
CCOC(=O)C1CCN(CC(O)COc2ccc(C(C)=O)cc2)CC1 (stereo unspecified),.,1.2
Cc1ccc(C(=O)N(CN2CCCC2=O)c2ccccc2)cc1C,.,2.9
CCOC(=O)c1cnn(CCOC(=O)c2cccs2)c1NC(=O)c1cccs1,.,-1.3
C=CCSc1ncccc1C(=O)O,i,1.9
CCOC(=O)N1CCC(N2CC34C=CC(O3)C(C(=O)O)C4C2=O)CC1 (stereo unspecified),i,-0.7
Cc1ccc(NC(=O)CCC(=O)O)cc1F,i,-0.9
O=C1c2ccccc2C(=O)N1CC1c2ccccc2CCN1S(=O)(=O)c1cnc[nH]1 (stereo unspecified),.,0.3
Cc1nc(NC2=NCN(CCc3ccccc3)CN2)nc2c(C)cccc12,i,3.9
CCc1nn2c(N3CCOCC3)cc(C)nc2c1-c1ccc(F)cc1,i,-2.4
O=C(CN1CCN(Cc2ccccc2Cl)C1=O)N1CCCCCC1,.,-1.0
CC1Cc2nc(SCC(=O)Nc3ccc4c(c3)OCO4)n(-c3ccc(F)cc3)c(=O)c2S1 (stereo unspecified),i,0.1

# Grouped by structure, the entries above with a COOH group
SMILES,VCAM-1 rise,Proteasome disasm
CC(=O)N1c2ccc(S(=O)(=O)CCC(=O)O)cc2CC1C (stereo unspecified),.,-0.9
Cc1ccc(N2CCN(c3ccc(C)cc3)C(CC(=O)O)C2=O)cc1 (stereo unspecified),i,-2.7
C=CCSc1ncccc1C(=O)O,i,1.9
CCOC(=O)N1CCC(N2CC34C=CC(O3)C(C(=O)O)C4C2=O)CC1 (stereo unspecified),i,-0.7
Cc1ccc(NC(=O)CCC(=O)O)cc1F,i,-0.9

# Given as tab-separated lines: part of the list above
compound	VCAM-1 rise	Proteasome disasm
Cc1ccc(NC(=O)CCC(=O)O)cc1F	i	-0.9
O=C1c2ccccc2C(=O)N1CC1c2ccccc2CCN1S(=O)(=O)c1cnc[nH]1 (stereo unspecified)	.	0.3
Cc1nc(NC2=NCN(CCc3ccccc3)CN2)nc2c(C)cccc12	i	3.9

# Later entries:
SMILES,VCAM-1 rise,Proteasome disasm
O=C(NCC1CCCO1)C1CCC(=O)N1Cc1ccccc1Cl (stereo unspecified),.,0.9
CCCc1cc(C(=O)Nc2cc(Br)ccc2O)no1,.,0.2
COc1ccccc1N1CSC2=C(C#N)C(c3ccc(SC)cc3)CC(=O)N2C1 (stereo unspecified),.,1.2
CCOC(=O)N1CCN(CC(O)COC(CC)c2ccccc2)CC1 (stereo unspecified),.,-3.4
Cc1ccc(S(=O)(=O)Nc2cc(C(=O)NCCN3CCCC3)ccc2N2CCCCC2)cc1,.,105.2*
CN1CCN(c2ccccc2NS(=O)(=O)c2ccc3c(c2)CCN3C(=O)C2CCC2)CC1,.,0.8
Cc1ccc(CNC(=O)CN2C(=O)C3(OCCCO3)c3ccccc32)cc1,.,0.5
O=C(NCc1ccco1)c1ccc(N2CCCC2=O)cc1,.,1.6
CN(CC(=O)Nc1ccc(F)c(F)c1)S(=O)(=O)c1cccc2nsnc12,.,-1.5
CCCCn1nnnc1NCc1cccs1,i,-0.6
O=C1CC(c2ccc(S(=O)(=O)NCc3ccccc3)cc2)CN1 (stereo unspecified),.,-1.6
CC(=O)N1CCc2cc3nc(C)cc(C)c3cc21,.,0.9
CCOC(=O)N1CCN(C(=O)c2ccc3nc(N4CCCCC4)sc3c2)CC1,.,-1.6
Cn1ccnc1SCCC#N,i,0.1
CCC(=O)N1CCc2cc(S(=O)(=O)NC(C(=O)NCc3ccccc3)C(C)C)ccc21 (stereo unspecified),.,-0.3
CCn1c(C)c(C(C)=O)c(N2CCCCC2)nc1=S,.,1.9
CN(C)C(=O)CN(C)S(=O)(=O)c1ccc(Cl)cc1,i,2.9
CC(=O)Nc1nc(C)nc(C)c1C(C)=O,.,-0.1
CCSc1nnc(NC(=O)CCNS(=O)(=O)c2cc(Br)cnc2N)s1,i,0.4
CCN1CCN(c2cc(C)c3cc(NC(=O)c4cncc(Br)c4)ccc3n2)CC1,.,0.5
Cc1nn(C)c(C)c1S(=O)(=O)N1CCC(C(=O)NC2CCCCCC2)CC1,.,-2.1
COc1ccc(CCNC(=O)c2nnn(-c3ccc4c(c3)OCCO4)c2N)cc1OC,.,-0.1
CCOc1cccc(-c2nnc3sc(COc4ccc(OC)cc4)nn23)c1,i,0.3
CN(C)C(=O)N1CCCC(C(=O)NCc2ccccc2)C1 (stereo unspecified),i,-1.8
COc1ccc(S(=O)(=O)NCc2ccc(C(=O)N3CCN(c4ccccn4)CC3)cc2)cc1,.,0.3
CCOC(=O)C1=C(c2ccccc2)NC(SCC(=O)Nc2cccc(C)c2)=C(C#N)C1c1ccco1 (stereo unspecified),.,0.9
Cc1ccc2c(c1)-c1c(cnn1CC(=O)NC(C)CCc1ccco1)CO2 (stereo unspecified),i,5.0
COc1ccccc1N(C)S(=O)(=O)c1ccc(C(=O)NC2=NCCS2)cc1,i,-0.4
CCn1[nH]c(=O)c(=Nc2c(C)n(C)n(-c3ccccc3)c2=O)cc1-c1ccc(Cl)cc1,.,0.4
Cc1ccc(S(=O)(=O)Cn2nnnc2CN(Cc2ccco2)CC2CCCO2)cc1 (stereo unspecified),i,1.4
CCCS(=O)(=O)NCCc1cc2cc(C)c(C)cc2[nH]c1=O,i,-1.5
CCOc1ccccc1Nc1nnc(Cc2ccccc2Cl)c(=O)[nH]1,.,-1.1
Cc1ccccc1NC(=O)Cc1nnc(SCC(=O)N2CCN(c3ccccc3)CC2)n1C,i,-0.5
CCOC(=O)Cn1c(=O)oc2cc(S(=O)(=O)Nc3ccc(F)cc3)ccc21,.,3.8
COc1ccc(OC)c2[nH]c(=O)c(CCNC(=O)c3ccc(S(=O)(=O)N4CCCC4)cc3)cc12,.,0.6
CCOc1ccc(-c2nc(-c3ccccc3)no2)cc1OCC,.,11.3
CC(C)(C)/C(O)=C(/C#N)c1nc2ccccc2[nH]1,.,6.7
COCCCC/C(=N\OCCN)c1ccc(C(F)(F)F)cc1,i,0.9
Cc1cc(C)n(-c2nc3c(c(=O)n(Cc4ccc(Cl)c(Cl)c4)c(=O)n3C)n2C)n1,i,2.2
Cc1ccc(-n2c(=O)[nH]cc(C(=O)Nc3ccc4c(c3)OCCO4)c2=O)cc1C,.,-2.3
O=C(CN(C(=O)CCC(=O)Nc1nccs1)c1ccccc1F)NCC1CCCO1 (stereo unspecified),i,-0.5
Cc1ccc(C2C=C(c3ccc4c(c3)OCO4)Nc3ncnn32)cc1 (stereo unspecified),.,-0.1
O=C(Nc1ccc2c(c1)OCO2)C(c1ccc(Cl)cc1)N1CCC2(CC1)OCCO2 (stereo unspecified),.,-1.3
COc1ccc(N2CCN(C(=O)CSc3ccccc3N)CC2)cc1,i,3.8
CCCN1Cc2cccc(C(=O)NCCCOC(C)C)c2C1=O,.,-0.2
COC(=O)Sc1nnc(-c2ccc(Br)cc2)o1,.,2.2
CCOC(=O)c1nnn(-c2nonc2N)c1CSc1ccccn1,.,0.1
CC(C)c1ccc(O)c(NC(=O)c2ncn[nH]2)c1,.,2.5
CCOC(=O)c1cnn(CCOC(=O)Cc2cccs2)c1NC(=O)Cc1cccs1,.,4.6
Cc1ccc(-n2ncc3c(N4CCCC(C)C4)ncnc32)c(C)c1 (stereo unspecified),i,-0.1
CCCCNC(=O)CC1N=C2c3ccccc3N=C(SCC(=O)Nc3ccc(OC)cc3)N2C1=O (stereo unspecified),.,-1.7
CCNS(=O)(=O)c1ccc(NC(=O)Cn2nc(C(F)(F)F)cc2C)cc1,.,-0.6
CCCSCCCNC(=O)CC1Oc2ccccc2NC1=O (stereo unspecified),.,-2.2
CC(C)CC1NC2(C(=O)N(C)c3ccccc32)C2C(=O)N(C(C)C)C(=O)C12 (stereo unspecified),i,2.3
CCOC(=O)c1c(N)nn(C(=O)C(C)C)c1-c1ccccc1,i,0.1
Cc1ccc(-n2c(Cc3cccn3C)nnc2SCC(=O)Nc2ccc3c(c2)OCO3)cc1,.,0.5
CCC(C)NC(=O)c1ccc(NC(=O)C2CCCO2)cc1 (stereo unspecified),.,-1.8
Cc1cccn2c(=O)c3cc(C(=O)Nc4ccc(N(C)C)cc4)n(C)c3nc12,.,2.2
COc1ccccc1-c1nnc(SCc2ccccn2)n1C,i,-0.2
CCc1nnc(NC(=O)CSc2nnc(-c3ccc(OC)cc3)n2C)s1,i,0.7

# Other structures follow.
SMILES,VCAM-1 rise,Proteasome disasm
CC(C)NCC(O)COc1ccc(CC(N)=O)cc1 (stereo unspecified),i,0.0
CCn1c(SCc2nc3ccccc3c(=O)[nH]2)nnc1-c1cccnc1,i,-1.0
C=CCn1c(SCC(=O)N2CCCC2)nc2cc(C(=O)NCC3CCCO3)ccc2c1=O (stereo unspecified),.,1.0
COc1ccc(NC(=O)NCCN2C(=O)C3C4C=CC(C4)C3C2=O)cc1 (stereo unspecified),i,-1.9
CC(C)C1N=C2c3ccccc3N=C(SCc3cc(=O)n4cc(Cl)ccc4n3)N2C1=O (stereo unspecified),.,4.6
CCOc1ncccc1C(=O)OCC(=O)Nc1ncc(C(F)(F)F)cc1Cl,i,-2.5
COc1ccc(OC)c(NC(=O)c2nnn(CCc3ccccc3)c2N)c1,.,-0.5
CCN1CCCC1CNC(=O)c1cc2c(=O)n(C)c3ccccc3c2n1C (stereo unspecified),i,-0.8
C=CCNC(=O)CSc1ccc(Cl)cc1,i,-4.0
CN1CCN(CCCNC(=O)Cn2ncc3c4ccccc4n(C)c3c2=O)CC1,i,-1.4
COc1ccc(NC(=O)N2CCC(c3ccccc3)C2)c(OC)c1 (stereo unspecified),.,1.5
COc1ccccc1-n1c(N)c(C(N)=O)sc1=S,.,-0.9
COc1ccc(C2Oc3ccccc3N2C(C)=O)cc1 (stereo unspecified),.,-0.9
N#CCSc1nc(Nc2ccc3c(c2)OCO3)c2ccccc2n1,.,2.6
COc1ccc(NC(=O)Cn2nnc(-c3ccccc3F)n2)cc1Cl,i,-11.9
CCCS(=O)(=O)C(=C1Nc2ccccc2N1)S(=O)(=O)CCC,i,1.2
CCCCCCC1/C(=N/O)CCC1C(=O)OC (stereo unspecified),i,-2.2
CC(=O)NC(O)C(=O)c1ccco1 (stereo unspecified),.,-1.7

# Source: PubChem BioAssay

# Only part of the results is shown; count on the stated rates, not on these rows.
